Compound activity (PubChem BioAssay)
SARS PLpro yeast: blocks SARS-CoV papain-like protease in a yeast assay; Potency, µM (titrated, usually from 32.9 µM), inactives show at the highest dose activity, positive = growth rescue; S. cerevisiae expressing SARS-CoV PLpro, growth rescue; control for the full effect not named in the record; actives 0.19% (n = 330,000); active means well fitted rising curve with a large enough effect; inconclusive means small, poorly fitted or top-dose-only effect; inactive means no such curve, though single readings can be large or run the other way; also: 0% is about no effect; nearly all actives have a fitted effect of over 55% in size; growth read by luminescence after 48 h
Lassa entry inh: blocks Lassa virus binding to or entry into cells; Lassa virus pseudotype entry inhibition, cell reporter; control for the full effect not named in the record; Potency, µM (titrated, usually from 37.9 µM), for the others: top-dose activity change, negative = inhibition, hits mostly inhibitors; actives 1.2% (n = 300,000); AID 540256; active means well fitted inhibition curve with a large enough effect; inconclusive means small, poorly fitted or top-dose-only effect, or effect the other way; inactive means flat fitted curve, though single readings scatter; tested in HEK293 cells; also: % is scaled to controls: 0 for no effect and ±100 for the full control effect; nearly all actives have a fitted effect of over 50% in size; luciferase read-out
2A StopGo: lowers the luciferase signal of an FMDV 2A StopGo reporter. human cells with a luciferase reporter of 2A StopGo recoding; control for the full effect not named in the record. Potency, µM (highest dose often 57.9 µM), for inactives: at the top dose signal change, negative = less light. actives 1.2% (n = 410,000). AID 1159524; active = well fitted falling curve with a large enough effect; inconclusive = small, poorly fitted or top-dose-only effect; inactive = no such curve, though single readings can be large or run the other way; tested in HEK293T cells; also: % is scaled to controls: 0 for no effect and ±100 for the full control effect; nearly all actives have a fitted effect of over 45% in size; luciferase light after 4 h
NS1 inh: inhibitors of influenza NS1 protein function; actives 0.4% (n = 270,000); AID 2326; S. cerevisiae slowed by influenza A NS1, growth recovery by OD600; Potency, µM (doses to about 46.1 µM), for the others: top-dose activity, positive = more growth; active means well fitted rising curve with a large enough effect; inconclusive means small, poorly fitted or top-dose-only effect; inactive means no such curve, though single readings can be large or run the other way; also: nearly all actives have a fitted effect of over 50% in size
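OD600 was taken as the measure of yeast growth restored by compound in an NS1-expressing S. cerevisiae strain. Cells had been washed out of glucose medium and diluted 1:100 into galactose -URA medium, pH 6.0.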
Cruzain Triton: inhibitors of Trypanosoma cruzi cruzain with detergent | actives 0.43% (n = 200,000) | P25779 | purified cruzain, Z-FR-AMC fluorescence, 0.01% Triton | Potency, µM, inactives show max response, negative = inhibition, actives largely listed as inhibitors;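 also: plate controls were neutral wells for no effect and buffer without enzyme for full effect; nearly all actives have a fitted effect of over 40% in size; top concentration of the series not given in the record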
Target sequence (P25779 123-467 limits assumed): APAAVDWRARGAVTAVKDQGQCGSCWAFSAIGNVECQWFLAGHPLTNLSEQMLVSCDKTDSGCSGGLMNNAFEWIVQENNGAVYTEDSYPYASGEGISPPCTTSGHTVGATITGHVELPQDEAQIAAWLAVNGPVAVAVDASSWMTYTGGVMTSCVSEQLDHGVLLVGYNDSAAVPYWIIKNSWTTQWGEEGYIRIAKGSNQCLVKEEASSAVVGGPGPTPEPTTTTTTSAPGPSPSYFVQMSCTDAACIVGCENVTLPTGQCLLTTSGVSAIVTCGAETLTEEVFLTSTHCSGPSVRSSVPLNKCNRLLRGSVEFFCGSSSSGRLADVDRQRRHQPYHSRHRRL
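Read-out: AMC fluorescence (360 nm excitation, 450 nm emission), four reads over 2 min, first-to-third difference used. Conditions: cruzain 1.5 nM, Z-FR-AMC 2 uM, pH 5.5 acetate, 5 mM DTT, 0.01% Triton X-100.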
Cruzain noTriton: blocks cruzain activity in detergent-free assay. P25779. purified cruzain, Z-FR-AMC fluorescence, no detergent. Potency, µM, without a hit: max response, negative = inhibition, most hits filed as inhibitors. actives 2.3% (n = 200,000);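 also: plate controls were enzyme without inhibitor for no effect and buffer without enzyme for full effect; nearly all actives have a fitted effect of over 40% in size; top concentration of the series not given in the record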
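Detergent-free condition (0.00005% Triton X-100) in acetate buffer pH 5.5 with DTT. 1.5 nM enzyme and compound were pre-mixed 15 min, then 2 uM Z-FR-AMC substrate added; reaction progress from fluorescence change between first and third reads (60 s).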
MARV entry inh: Marburg virus entry inhibition; Marburg virus pseudotyped entry inhibition, cell reporter; control for the full effect not named in the record; about a third of the inactives were read at about 46 µM; Potency, µM (titrated, usually from 37.8 µM), inactives show top-dose activity change, negative = inhibition, hits mostly inhibitors; actives 1.8% (n = 300,000); AID 540276; active = well fitted inhibition curve with a large enough effect; inconclusive = small, poorly fitted or top-dose-only effect, or effect the other way; inactive = flat fitted curve, though single readings scatter; tested in HEK293 cells; about a fifth of its hits are not listed in these tables; also: % is scaled to controls: 0 for no effect and ±100 for the full control effect; luciferase read-out
RE007 growth inh: less growth of the S. pombe RE007 Vpr strain; actives 0.21% (n = 360,000); S. pombe RE007 Vpr strain, BacTiter-Glo ATP luminescence, 24 h; control for the full effect not named in the record; AID 651644; Potency, µM (titrated, usually from 92.2 µM), without a hit: top-dose activity change, negative = less growth; active = well fitted falling curve with a large enough effect; inconclusive = small, poorly fitted or top-dose-only effect; inactive = no such curve, though single readings can be large or run the other way;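 also: % is scaled to controls: 0 for no effect and ±100 for the full control effect; nearly all actives have a fitted effect of over 50% in size; the assay follows cell death caused by Vpr and the record does not say whether a fall means rescue or toxicity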
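Fission yeast strain RE007, carrying one chromosomally integrated HIV-1 vpr copy, was seeded at OD 0.01 in PMG+AL medium with 23 nL pinned compound. After 24 h at 30 °C and 99% humidity, viability was read by BacTiter-Glo luminescence.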
Numbers without * were called inactive; ? = inconclusive; / = no result given; & = joins results of further samples; [ ] = dose if it differs, or a comment. Unless noted, calls follow the shape of the dose curve; as a rule, active = well fitted curve in the direction sought with a large enough effect; inconclusive = small, poorly fitted or top-dose-only effect, or another doubt; inactive = no such curve, though single readings can be large; an effect the other way counts as inactive or inconclusive. Potency is read from the fitted curve at half-maximal effect. Rows are unselected (roughly 4.6% active in at least one column).

Molecule | SARS PLpro yeast | Lassa entry inh | 2A StopGo | NS1 inh | Cruzain Triton | Cruzain noTriton | MARV entry inh | RE007 growth inh
O=C(N/N=C\c1cn[nH]c1-c1ccccc1)c1cccnc1 | -1.5% | -6.6% | / | -0.7% | -0.2% | 6.0% | -7.1% | -0.3%
Cc1sc2nc(SCC(=O)NCc3ccco3)n(-c3ccccc3)c(=O)c2c1C | -1.3% | -28.9% | / | 5.9% | 3.2% | -9.5% | ? | -16.9%
O=C(/C=C/c1ccco1)N(Cc1ccc(Cl)cc1)C1CCS(=O)(=O)C1 (stereo not given) | -0.6% | -1.9%[46.1 µM] | -3.1% | -2.5% | / | / | -20.9%[46.1 µM] | 16.6%
NC(=O)c1nn(-c2ccccc2)nc1NC(=O)CN1CCCC1 | 1.4% | 14.1% | 11.1% | -5.2% | / | / | 2.7%[46.1 µM] | 4.7%
Cc1ccc(NC(=O)N2CCN(C)c3ncccc32)cc1C | / | -3.8%[46.1 µM] | 16.5% | / | 0.6% | -5.7% | ? | /
COc1ccccc1C(=O)Nc1ccc(C(=O)OCc2cc(=O)n3nc(C4CC4)sc3n2)cc1 | / | 8.3%[46.1 µM] | -20.7% | / | -0.2% | 6.6% | / | /
CCc1cc(=O)oc2c(CN3CCCC3)c(O)c(Cl)cc12 | 3.9% | 0.4% | 5.4% | 4.2% | 28.2µM* | ? | -0.4% | 26.4%
CC1=C(C(=O)O)N2C(=O)C(NC(=O)c3nn(C)cc3Cl)C2SC1 (stereo not given) | -2.1% | 3.8% | -13.1% | 9.2% | 0.3% | -2.2% | 3.0% | 3.1%
CCOC(=O)CSc1nnc(CNc2ccc(Cl)cc2)n1Cc1ccccc1 | -40.4% | 0.7% | 3.9% | -13.2% | -5.9% | ? | 3.6% | 17.1%
O=C(N/C(=C\c1ccc(Br)cc1)C(=O)N1CCCC1)c1cccs1 | 0.9% | 0.8% | 63.4%[activator] | / | / | / | -11.6%[46.1 µM] | -6.8%
O=C(c1ccc2c(c1)OCO2)C1CCCN(Cc2cc(F)ccc2-n2cccn2)C1 (stereo not given) | -0.4% | -12.5% | 0.9% | -2.6% | / | / | ? | -1.2%
O=C(CCSc1ccccc1)N1CCCC1 | -1.9% | ? | 21.6% | 1.8% | / | / | -29.8%[46.1 µM] | 8.3%
CCN(CC)CCCN(Cc1cc2cc3c(cc2[nH]c1=O)OCCO3)C(=O)Nc1ccccc1 | -9.5% | -0.2% | ? | -3.3% | -5.8% | -0.6% | ? | -2.9%
COc1cccc(CNC(=O)CCC2CCCN(C(=O)c3cccc(Cl)c3)C2)c1 (stereo not given) | -0.2% | ? | -13.8% | -3.8% | / | / | 5.2%[46.1 µM] | -7.2%
CC(=O)N1c2ccccc2C(=O)OC1c1cccnc1 (stereo not given) | 13.1% | 0.5% | -9.2% | 1.8% | 4.3% | -13.4% | 10.2% | -3.6%
CCc1ccccc1NC(=O)N[C@@H](C)C(=O)OC | 4.3% | 14.7% | / | -3.6% | -1.5% | 2.3% | 0.8% | -12.4%
Cc1c(C(=O)NCCCN2CCOCC2)sc2ncnc(N3CCN(c4ccccc4)CC3)c12 | 2.6% | -4.2% | ? | -16.8% | -0.2% | 0.6% | ? | 14.5%
Cc1ccccc1-n1ncc2c([N+](=O)[O-])cc([N+](=O)[O-])cc21 | -39.7% | ? | -18.2% | ? | -5.2% | -3.3% | -33.6% | ?
COc1ccc(NC(=O)CC2CCCC2)cc1S(=O)(=O)N1CCCCC1 | 1.4% | 10µM* | -21.5% | 2.0% | -6.0% | 6.5% | -0.5% | 4.6%
CC(=O)c1c(C)nn(CC(O)COc2ccc3ccccc3c2)c1C (stereo not given) | -0.3% | -16.4% | ? | -0.8% | / | / | -7.0% | 1.0%
COCCn1c(=O)[nH]c2cc(C(=O)Nc3cc(OC)c(OC)c(OC)c3)ccc2c1=O | -3.8% | -18.1%[46.1 µM] | -15.2% | 0.2% | / | / | -14.1%[46.1 µM] | 4.4%
Cc1cccc(N2CCN(C(=O)C3CCN(S(=O)(=O)c4cccc5cccnc45)CC3)CC2C)c1 (stereo not given) | 8.8% | / | ? | -48.1% | -4.1% | ? | 1.3% | 16.3%
O=C(CSc1nnc(-c2cnccn2)n1Cc1ccco1)Nc1ccc(Br)cc1 | / | -8.3% | 0.0% | -63.2% | -4.2% | ? | 11.4%&11.4% | 12.9%
COc1ccc(OC)c(CNC(=O)Cn2ncc3c([nH]c4ccc(C)cc43)c2=O)c1 | / | 18.0%[46.1 µM] | -4.0% | / | -0.6% | -4.8% | / | /

Part of the list above, with each value named:
CC(=O)c1c(C)nn(CC(O)COc2ccc3ccccc3c2)c1C (stereo not given)
  SARS PLpro yeast: -0.3%
  Lassa entry inh: -16.4%
  2A StopGo: ?
  NS1 inh: -0.8%
  Cruzain Triton: /
  Cruzain noTriton: /
  MARV entry inh: -7.0%
  RE007 growth inh: 1.0%
COCCn1c(=O)[nH]c2cc(C(=O)Nc3cc(OC)c(OC)c(OC)c3)ccc2c1=O
  SARS PLpro yeast: -3.8%
  Lassa entry inh: -18.1%[46.1 µM]
  2A StopGo: -15.2%
  NS1 inh: 0.2%
  Cruzain Triton: /
  Cruzain noTriton: /
  MARV entry inh: -14.1%[46.1 µM]
  RE007 growth inh: 4.4%
Cc1cccc(N2CCN(C(=O)C3CCN(S(=O)(=O)c4cccc5cccnc45)CC3)CC2C)c1 (stereo not given)
  SARS PLpro yeast: 8.8%
  Lassa entry inh: /
  2A StopGo: ?
  NS1 inh: -48.1%
  Cruzain Triton: -4.1%
  Cruzain noTriton: ?
  MARV entry inh: 1.3%
  RE007 growth inh: 16.3%

A different layout for two compounds above.
> CCc1cc(=O)oc2c(CN3CCCC3)c(O)c(Cl)cc12
  SARS PLpro yeast: 3.9%; Lassa entry inh: 0.4%; 2A StopGo: 5.4%; NS1 inh: 4.2%; Cruzain Triton: 28.2µM*; Cruzain noTriton: ?; MARV entry inh: -0.4%; RE007 growth inh: 26.4%
> CC1=C(C(=O)O)N2C(=O)C(NC(=O)c3nn(C)cc3Cl)C2SC1 (stereo not given)
  SARS PLpro yeast: -2.1%; Lassa entry inh: 3.8%; 2A StopGo: -13.1%; NS1 inh: 9.2%; Cruzain Triton: 0.3%; Cruzain noTriton: -2.2%; MARV entry inh: 3.0%; RE007 growth inh: 3.1%

(list continues)
Molecule | SARS PLpro yeast | Lassa entry inh | 2A StopGo | NS1 inh | Cruzain Triton | Cruzain noTriton | MARV entry inh | RE007 growth inh
CCCCn1c(/N=C/c2ccc(N(C)C)cc2)nc2ccccc21 | -7.4% | 0.9% | 0.6% | -25.6% | -18.6% | 6.3% | ? | -2.2%
Cc1ccccc1NCc1ccccc1O | 3.6% | 1.7% | -24.1% | -5.5% | -4.2% | -4.5% | 0.0%&-3.5% | -2.6%
CN(C(=O)c1ccccc1Cl)c1ccccc1C(=O)NCc1ccccc1 | -2.7% | -0.4% | -3.0% | -4.1% | / | / | 0.6% | 4.7%
COc1ccc(-n2c(/C=C/c3cccc(F)c3)nc3ccccc3c2=O)cc1Cl | / | 19.7%[46.1 µM] | -7.6% | / | 1.0% | 4.6% | / | /
Cc1ccc(/C=N/n2c(C)nnc2C)cc1 | -3.7% | ? | 0.9% | 9.7% | -3.2% | 5.2% | 1.2% | 2.3%
CCOC(=O)CC(/C(C)=N\O)c1ccccc1 (stereo not given) | -1.8% | -1.6% | -3.4% | 6.0% | 6.2% | 5.9% | -5.6% | -1.1%
Clc1nc(NCc2ccco2)nc(N2CCCCC2)n1 | -1.9% | -9.3% | -15.5% | / | / | / | 0.2%[46.1 µM] | -7.4%
O=C(NCCc1ccc(Cl)cc1)/C(=C/c1cccnc1)NC(=O)c1ccccc1 | 15.8µM* | -9.5% | -9.7% | 5.2% | -0.1% | 2.9% | -6.4% | 6.2%
CCC(C(=O)N1CCC(C(N)=O)CC1)n1nc(C)n2c(cc3occc32)c1=O (stereo not given) | 6.6% | 17.6%[46.1 µM] | 16.0% | 4.2% | / | / | 0.2%[46.1 µM] | -7.3%
COc1ccc(CN2CCNC(=O)C2CC(=O)N(C)Cc2nccs2)c(OC)c1 (stereo not given) | -3.9% | / | -10.3% | 5.1% | / | / | / | 7.0%
Cc1[nH]n(-c2cccc(Cl)c2)c(=O)c1C=NCC(C)C | -11.2% | / | 84.5%[activator] | / | / | / | ? | -25.1%

Structures listed so far that have bromine:
Molecule | SARS PLpro yeast | Lassa entry inh | 2A StopGo | NS1 inh | Cruzain Triton | Cruzain noTriton | MARV entry inh | RE007 growth inh
O=C(N/C(=C\c1ccc(Br)cc1)C(=O)N1CCCC1)c1cccs1 | 0.9% | 0.8% | 63.4%[activator] | / | / | / | -11.6%[46.1 µM] | -6.8%
O=C(CSc1nnc(-c2cnccn2)n1Cc1ccco1)Nc1ccc(Br)cc1 | / | -8.3% | 0.0% | -63.2% | -4.2% | ? | 11.4%&11.4% | 12.9%
